# Source: PubChem BioAssay (Johns Hopkins Ion Channel Center)
# KCNQ2 block: KCNQ2 channel blockers in CHO-K1 cells – cell-based, FluxOR thallium flux, B-score, primary screen (AID 2156). O88943. 20 min; active compounds read low; only compounds with negative scores are shown here; some inactives read as strong as hits. B-score at 10 µM. 1.1% of 310,000 active;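 active = fluorescence ratio B-score at most minus 3 library SDs, with starting brightness B-score within 2 library SDs, cut at about -5.5 in these data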
# Target sequence (O88943 whole entry, looked up): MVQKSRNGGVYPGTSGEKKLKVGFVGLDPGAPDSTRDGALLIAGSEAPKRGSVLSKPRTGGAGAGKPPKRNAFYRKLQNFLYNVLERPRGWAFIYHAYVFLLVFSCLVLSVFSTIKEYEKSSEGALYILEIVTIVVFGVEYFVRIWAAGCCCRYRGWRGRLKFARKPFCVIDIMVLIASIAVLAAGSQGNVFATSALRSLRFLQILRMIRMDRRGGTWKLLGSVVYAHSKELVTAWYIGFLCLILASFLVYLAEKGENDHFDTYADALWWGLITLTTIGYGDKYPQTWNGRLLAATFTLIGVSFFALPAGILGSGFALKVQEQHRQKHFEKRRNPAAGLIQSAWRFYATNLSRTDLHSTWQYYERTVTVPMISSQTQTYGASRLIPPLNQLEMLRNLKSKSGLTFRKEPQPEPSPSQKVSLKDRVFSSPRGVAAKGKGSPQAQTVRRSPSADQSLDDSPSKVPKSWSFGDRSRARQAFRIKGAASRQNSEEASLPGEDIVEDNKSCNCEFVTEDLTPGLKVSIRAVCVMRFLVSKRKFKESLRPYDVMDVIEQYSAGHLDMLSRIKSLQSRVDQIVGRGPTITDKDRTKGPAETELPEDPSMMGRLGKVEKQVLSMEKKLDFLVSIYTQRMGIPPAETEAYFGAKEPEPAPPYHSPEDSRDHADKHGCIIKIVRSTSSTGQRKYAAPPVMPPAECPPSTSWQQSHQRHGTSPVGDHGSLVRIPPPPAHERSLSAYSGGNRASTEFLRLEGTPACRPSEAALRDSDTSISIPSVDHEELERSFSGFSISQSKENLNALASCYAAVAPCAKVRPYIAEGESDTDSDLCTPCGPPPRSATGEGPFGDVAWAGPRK
# KCNQ2 block baseline: second read-out of KCNQ2 block, no call of its own (marks repeat the call); B-score; measured here: initial fluorescence intensity artifact check;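 brightness before thallium and not channel activity; 0 = typical well and far values either way flag optical interference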
# Numbers without * were called inactive; i = inactive.
SMILES,KCNQ2 block,KCNQ2 block baseline
CC1CCC(C(C)C)C(OP(=O)(c2ccc(N(C)C)cc2)C(O)c2cccnc2)C1 (stereo not drawn),i,-0.59
CC(C)Cn1c(N)c(C(=O)NCc2cccs2)c2nc3ccccc3nc21,i,0.73
Cc1cc(NS(=O)(=O)c2ccc(OCCNS(C)(=O)=O)cc2)no1,i,0.56
CCCN(CC(=O)Nc1ccccc1OC)C(=O)c1cccc(S(=O)(=O)NCc2ccccc2)c1,i,0.02
N#CC1(C#N)C(c2ccccc2)OC23CCCCCC2C1(C#N)C(=N)O3 (stereo not drawn),i,-0.99
O=C(CN(c1ccc(F)cc1)S(=O)(=O)c1ccccc1)NCCSC1CCCCC1,i,-0.78
O=C(NC1CCCCCC1)c1cc(S(=O)(=O)N2CCOCC2)ccc1N1CCCCC1,i,-0.07
Cc1nn(CCOc2ccccc2)c(=O)n1-c1ccccc1,i,0.45
CCOC(=O)C(NC(=O)c1ccccc1)=C1CCCCC1,i,-2.8
COC(=O)Cc1ccc(OC(=O)c2cccc(S(=O)(=O)N3CCN(C)CC3)c2)cc1,i,1.7
Cc1cc(C)nc(NC(=O)/C=C/c2ccccc2Cl)c1,i,0.67
CNC(=O)c1c(NC(=O)CS(=O)(=O)c2ccccc2)sc(C)c1C,i,0.51
Cc1ccc2[nH]c(=O)c(CN(C(=O)c3cccc([N+](=O)[O-])c3)C(C)C)cc2c1,i,0.4
Cc1ccc(S(=O)(=O)N2CCC(C(=O)OCC(=O)N(C)c3ccccc3)CC2)cc1C,i,0.29
Cc1ccc(NC(=O)c2c(O)c3ccccc3n(C)c2=O)nc1,i,0.8
CS(=O)(=O)N1CCN(c2ccc(NC(=O)CSc3nnc(-c4ccco4)o3)cc2)CC1,i,-0.29
O=C1N/C(=C/c2ccco2)C(=O)N1Cc1ccccc1F,i,0.37
COc1ccc(CC(=O)NNC(=S)Nc2ccccc2)cc1Cl,i,0.78
CCOC(=O)c1c(S(=O)(=O)NCC(=O)N2CCN(c3ccccc3)CC2)c(C)n(C)c1C,i,0.2
Cc1cccc(NC(=S)NC2CCSc3ccccc32)c1 (stereo not drawn),i,-1.1
COCCN(C)C(=O)CC1C(=O)NCCN1CC(c1ccccc1)c1ccccc1 (stereo not drawn),i,0.48
COCC(=O)N1CCCC(C(=O)c2ccc(-c3ccccc3)c(F)c2)C1 (stereo not drawn),i,-0.93
COc1ccc(N(C(=O)Nc2ccc(Cl)cc2)C2=NCCC2)cc1,i,0.22
O=C(COC(=O)C1c2ccccc2Oc2ccccc21)NC1CCS(=O)(=O)C1 (stereo not drawn),i,-2.6
Cn1c(=O)[nH]c(=O)c2c1nc(Br)n2CCSc1ncccn1,i,2.5
CCOC(=O)N1CCN(S(=O)(=O)c2ccc(OCC)cc2)CC1,i,-0.36
CN1C(=O)[C@H](Cc2ccc([N+](=O)[O-])cc2)NC1=S,i,-3.1
COc1cc(S(=O)(=O)NCCN2CCOCC2)ccc1-n1cnnn1,i,-0.13
O=C(COC(=O)c1ccc(S(=O)(=O)N2CCOCC2)cc1)NCc1cccs1,i,-0.05
Cc1cccc(Nc2nc(N)c([N+](=O)[O-])c(N3CCOCC3)n2)c1,i,0.62
O=C1[C@@H]2[C@H](C(=O)N1Cc1cccnc1)[C@H]1C=C[C@@H]2C1,i,-2.5
CCOC(=O)c1sc(/S(C)=N\S(=O)(=O)c2cccc(Cl)c2)c2c1CCC=C2 (stereo not drawn),i,0.89
O=C(Nc1ccccc1F)c1ccc(-n2cncn2)nc1,i,0.36
Cc1ccc(S(=O)(=O)N(CC(=O)NCCSc2ccccn2)c2ccc(C)c(C)c2)cc1,i,0.81
COC(=O)c1cc(OC)c(OC)cc1NC(=O)CSc1ccccc1,i,-0.05
C/C(=C\C(=O)c1ccc(Br)cc1)Nc1ccc(Cl)cc1,i,-0.05
CCOC(=O)c1nn(C)c(C)c1Cl,i,-0.25
CSCC[C@H](NC(=O)N1CCn2c1nc1ccccc12)C(=O)NC1CCCCC1,i,1.8
O=C(COc1cccc2cccnc12)NNC(=O)Nc1ccccc1,i,-0.71
Cc1ccc(C(=O)NCC(=O)OCC(=O)Nc2cc(C)c(C)cc2[N+](=O)[O-])cc1,i,-0.24
COc1ccc(-c2nc(SCC(=O)N3CCCC3)n[nH]2)cc1,i,0.65
Cn1c(=O)[nH]c(=O)c2c1nc(CN1CCN(c3cccc(Cl)c3)CC1)n2Cc1ccccc1Cl,i,1.8
Cc1cc(=O)oc2cc(OCC(O)CN3CCc4ccccc4C3)ccc12 (stereo not drawn),i,0.29
COc1ccccc1N1CCN(C(=O)c2cc3c(C)nc4ccccc4c3o2)CC1,i,1.7
CCOC(=O)c1cnc2ccc(F)cc2c1Nc1ccc2c(c1)OCCO2,i,-0.99
COc1ccc(CNC(=O)c2cc(-c3ccccc3O)n[nH]2)cc1,i,1.4
COc1ccc(C(=O)N(Cc2cccs2)C2CCS(=O)(=O)C2)cc1 (stereo not drawn),i,-0.14
O=C(c1ccc(-n2cnnn2)cc1)N1CCN(C(c2ccccc2)c2ccccc2)CC1,i,-0.24
COc1ccccc1N(CC(=O)NC1CCCCC1)C(=O)CCC(=O)Nc1ccccn1,i,-0.02
COc1ccccc1C1=CC(=O)CCC1,i,-1.3
COc1cc(C(=S)N2CCCC2)ccc1OCC(N)=O,i,-0.57
CC(=O)c1ccc(N/C=C\C(=O)c2ccc(C)cc2)cc1,i,0.69
CCN(CC(=O)Nc1c(F)cccc1F)C(=O)C1CCC1,i,0.37
O=C(Cc1ccccc1)N1CCC(c2ccccc2)C1 (stereo not drawn),i,-0.22
COc1cccc(CN2CCN(S(=O)(=O)c3ccc(Cl)s3)CC2)c1,i,-0.08
O=C(Nc1ccccc1N1CCCC1)c1cccc(S(=O)(=O)N2CCOCC2)c1,i,0.79
Cc1noc(N)c1C(=O)Nc1ccc(F)cc1,i,1.4
COc1cc(CNc2ccc(N3CCCC3)cc2)cc(Cl)c1OC,i,-0.68
COc1ccccc1CCN=C(N)NS(=O)(=O)c1ccc(F)cc1,i,-0.01
Cc1ccccc1N(CC(=O)NCc1ccncc1)S(C)(=O)=O,i,2

# Further results follow:
SMILES,KCNQ2 block,KCNQ2 block baseline
CCOc1ccc(/C=C/[N+](=O)[O-])c2ccccc12,i,-0.37
FC(F)(F)c1cc(-c2ccccc2)nc(-n2cncn2)n1,i,1.2
COCCNCC(=O)Nc1ccc(C)c(S(=O)(=O)N2CCCCC2)c1,i,-0.05
COCC1CCN(Cc2c(C(=O)N3CCc4ccccc4C3)nc3ccc(Cl)cn23)C1 (stereo not drawn),i,3.9
C=CCn1c(SCC(=O)NCc2ccco2)nc2ccccc2c1=O,i,0.52
COc1ccc(-c2cc(C(=O)Nc3c(F)cc(F)cc3Br)no2)cc1,i,-0.47
CCOC(=O)C(=N/O)/C(C)=N/NC(C)=O,i,0.15
COc1ccc(N(C(=O)c2snc(C(N)=O)c2N)C(C(=O)NC2CCCC2)c2ccco2)c(OC)c1 (stereo not drawn),i,0.07
O=C(/C(=N/O)n1cncn1)c1ccccc1Cl,i,1.4
Cc1ccc2sc(N(CCN(C)C)C(=O)c3ccc4ccccc4c3)nc2c1C,i,0.62
N#CC(c1ccc(=O)[nH]n1)c1ccc(Cl)cc1Cl (stereo not drawn),i,0.06
N#C/C(C(N)=O)=c1/ccc2c(c1)N1C3=C(CCCC3)CC3CCCCC31N=2 (stereo not drawn),i,-1.6
Cc1cccc(/C=C/c2onc(C)c2S(=O)(=O)N2CCC(C(=O)N3CCCCCC3)CC2)c1,-6*,0.18*
CC(C)(C)c1cc(C(=O)O)n[nH]1,i,-0.26
COC(=O)c1c[nH]n2c(=O)c(C(C)C)c(C)nc12,i,-1.5
CCCc1cc(=O)[nH]c(SCc2cc(=O)oc3cc(C)c(C(C)C)cc23)n1,i,-2.7
COc1ccccc1CNC(=O)CN(c1ccc(C)cc1)S(=O)(=O)c1c(C)noc1C,i,-0.87
CCN(CC)CCN(Cc1cc2cc(C)ccc2[nH]c1=O)C(=O)Nc1ccccc1OC,i,1.9
Cc1ccc(S(=O)(=O)CC(=O)N(CCCN(C)C)c2nc3ccc(C)cc3s2)cc1,i,2.7
CCOCCCNC(=O)C(NC(=O)c1ccc2c(c1)OCO2)c1ccc(Cl)cc1 (stereo not drawn),i,1.7
C=CCN(c1ccc(C(=O)NCCN2CCOCC2)cc1)S(C)(=O)=O,i,0.81
COC(=O)C1CCN(C(=O)COC(=O)c2n[nH]c3ccccc23)CC1,i,2.5
O=C(Nc1ccccc1-c1ccccc1)c1ccccc1,i,-0.1
CC/C(=N/N=C(\CC)c1ccccc1)c1ccccc1,i,-1
CC1=C(C(=O)Nc2cccc(C(=O)NC(C)c3ccccc3)c2)SCCO1 (stereo not drawn),i,-0.58
COc1cc(OC)c2c(-c3ccccc3)cc(=O)oc2c1,i,0.04
Cc1ccc(C)c(NC(=O)c2ccc3nccnc3c2)c1,i,-0.44
N=c1n(CCN2CCCCC2)c2ccccc2n1CC(=O)c1ccc(Cl)c(Cl)c1,i,0.18
C/C=C/c1ccc(OCCCN2C(=O)NC(C)(C)C2=O)c(OC)c1,i,0.99
CCC(C)[C@H](NC(=O)N1CCn2c1nc1ccccc12)C(=O)NCc1ccccc1 (stereo partly drawn),i,-0.15

# One compound at a time (already shown).
# `CC1=C(C(=O)Nc2cccc(C(=O)NC(C)c3ccccc3)c2)SCCO1` (stereo not drawn) reads KCNQ2 block: i; KCNQ2 block baseline: -0.58
# `O=C(Nc1ccccc1F)c1ccc(-n2cncn2)nc1` reads KCNQ2 block: i; KCNQ2 block baseline: 0.36

# Further compounds
SMILES,KCNQ2 block,KCNQ2 block baseline
COc1ccccc1NC(=O)Nc1c(C)n(C)n(-c2ccccc2)c1=O,i,1.3
COc1ccc(C)cc1NS(=O)(=O)c1cn(C)c(=O)n(C)c1=O,i,2.4
CCOC(=O)c1cnn(-c2cc(C)nc3c(-c4ccccc4)c(C)nn23)c1N,i,-1.4
CCc1ccc(C2=NNC(=Nc3c(C)n(C)n(-c4ccccc4)c3=O)SC2)cc1,i,-0.66
Cc1cc(S(=O)(=O)NCc2ccco2)c(C)cc1Cl,i,-0.35
COC(=O)COc1ccc2c(=O)c(Oc3ccccc3)c(C)oc2c1,i,2.6
CC(=O)Nc1ccc(C2(c3ccc(NC(C)=O)cc3)NC(=O)c3ccccc32)cc1,i,2
O=C(Nc1cc(Cl)ccc1N1CCCCC1)c1cccs1,i,-1.1
COC(=O)CSc1nc(C)cc(N2CCOCC2)n1,i,2.1
Cc1ccc(S(=O)(=O)N2CCCCC2)cc1C(=O)NCC1CCCO1 (stereo not drawn),i,0.2
O=S(=O)(Nc1cccc2ccccc12)c1ccccc1,i,-1.2
COc1cc(NC(=O)c2cccc([N+](=O)[O-])c2C)ccc1NC(=O)c1ccco1,i,-0.86
CC(C)c1ccc(C(C)NCCS(=O)(=O)c2ccc(Cl)cc2)cc1 (stereo not drawn),i,0.52
CCC1CN(C)C2Cc3c([nH]c4ccccc34)C(=O)CC1C2C(=O)OC (stereo not drawn),i,0.67
COc1ccc(CNC(=O)C(=O)NC2CCC(C)CC2)cc1 (stereo not drawn),i,-0.3

# Some values from the list.
# Cc1cc(S(=O)(=O)NCc2ccco2)c(C)cc1Cl | KCNQ2 block baseline = -0.35
# CCC1CN(C)C2Cc3c([nH]c4ccccc34)C(=O)CC1C2C(=O)OC (stereo not drawn) | KCNQ2 block baseline = 0.67
# COc1ccc(C)cc1NS(=O)(=O)c1cn(C)c(=O)n(C)c1=O | KCNQ2 block baseline = 2.4

# Next part
SMILES,KCNQ2 block,KCNQ2 block baseline
O=C(O)CCc1nc(-c2ccccc2)no1,i,0.27
NC1=NC(=O)/C(=C/c2ccc(Br)cc2)S1,i,2.2
CC(C)CC(=O)Nc1nnc(S(=O)(=O)N(C)c2ccc(Cl)cc2)s1,i,-1.7
Cc1ccc(N(Cc2ccccc2F)S(C)(=O)=O)c(C)c1,i,-0.77
O=C1CSC(c2cn(-c3ccccc3)nc2-c2cc3ccccc3oc2=O)N1Cc1ccco1 (stereo not drawn),i,2.2
CNC(=O)c1cc(NC(=O)CCn2nc(-c3ccc(C)cc3)c3ccccc3c2=O)ccc1OC,i,0.46
Cc1nc2ccccc2n1Cc1ccccc1,i,0.18
S=C(NCCc1ccccc1)Nc1nccs1,i,-0.46
Cc1ccc(/C=c2\s/c(=C(/C#N)C(=O)N3CCCC3)n(Cc3ccco3)c2=O)s1,i,2.2
COc1ccc(NC(=O)c2nnn(Cc3ccc(SC)cc3)c2N)c(OC)c1,i,0.17
COC(=O)C(C(=O)OC)=C(/C=C/N(C)C)N(C)C,i,-0.49
Cc1ccc(C(=O)/C=C2\NCCNC2=O)cc1,i,0.58
Clc1ccccc1Sc1ccc(-c2ccccn2)s1,i,3.2
O=C(N/C(=C/c1ccccc1)C(=O)N1CCOCC1)c1ccc([N+](=O)[O-])cc1,i,-0.65
CCN1C(=O)CC(NCc2ccc(S(N)(=O)=O)cc2)C1=O (stereo not drawn),i,-0.09
Cc1cc(N(C)/N=C/c2ccccc2)nc(-c2ccccc2O)n1,i,-0.17

# Seven records drawn at random from the list so far, as already listed:
SMILES,KCNQ2 block,KCNQ2 block baseline
COc1ccc(NC(=O)c2nnn(Cc3ccc(SC)cc3)c2N)c(OC)c1,i,0.17
Clc1ccccc1Sc1ccc(-c2ccccn2)s1,i,3.2
Cc1nc2ccccc2n1Cc1ccccc1,i,0.18
Cc1ccc(C(=O)/C=C2\NCCNC2=O)cc1,i,0.58
CCN1C(=O)CC(NCc2ccc(S(N)(=O)=O)cc2)C1=O (stereo not drawn),i,-0.09
O=C(O)CCc1nc(-c2ccccc2)no1,i,0.27
S=C(NCCc1ccccc1)Nc1nccs1,i,-0.46

# Some of the compounds tested; rates above refer to the full screens.
